2A StopGo: lowers the luciferase signal of an FMDV 2A StopGo reporter; human cells with a luciferase reporter of 2A StopGo recoding; control for the full effect not named in the record; Potency, µM (highest dose often 57.9 µM), for the others: at the highest dose signal change, negative = less light; 1.2% of 410,000 active; active = well fitted falling curve with a large enough effect; inconclusive = small, poorly fitted or top-dose-only effect; inactive = no such curve, though single readings can be large or run the other way; tested in HEK293T cells; further: nearly all actives have a fitted effect of over 45% in size; luciferase light after 4 h
RE007 growth inh: less growth of the S. pombe RE007 Vpr strain; Potency, µM (top dose mostly 92.2 µM), for the others: at the highest dose activity change, negative = less growth; S. pombe RE007 Vpr strain, BacTiter-Glo ATP luminescence, 24 h; control for the full effect not named in the record; 0.21% of 360,000 active; AID 651644; active = well fitted falling curve with a large enough effect; inconclusive = small, poorly fitted or top-dose-only effect; inactive = no such curve, though single readings can be large or run the other way;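 further: nearly all actives have a fitted effect of over 50% in size; the assay follows cell death caused by Vpr and the record does not say whether a fall means rescue or toxicity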
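Fission yeast RE007 carrying one integrated HIV-1 vpr copy, seeded at OD 0.01 in PMG+AL medium with 23 nL pinned compound. Grown 24 h at 30 degrees; viability read by BacTiter-Glo luminescence after 5 min.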
The depositor's hits bear a star; ? = inconclusive; [ ] = dose if it differs, or a comment. On the % scale 0 is the no-effect control and ±100 the full control effect; potency means the concentration at half of the fitted maximal effect.

nr	mol	2A StopGo	RE007 growth inh
1	COc1ccc(S(=O)(=O)N2CCCCC2c2cc(C(=O)NCc3ccc(F)cc3)no2)cc1 (stereo not drawn)	-5.6%	-12.5%
2	CCC(=O)N[C@@H]1C=C[C@@H](CC(=O)NCc2ccccc2F)O[C@@H]1CO	-10.2%	3.6%
3	CCc1nc2c(OCCC3CCCCC3)cccn2c1N(C)C(=O)c1ccc(OC)cc1	-27.6%	-1.2%
4	Cc1nc(SCC(=O)c2cc(C)n(C3CC3)c2C)c2ccccc2n1	10µM*	5.5%
5	Cc1cc(Cl)ccc1C(O)c1ncc(-c2ccc(F)cc2)[nH]1 (stereo not drawn)	-4.7%	?
6	CCc1nc2c(OCc3c(C)noc3C)cccn2c1N(C=O)Cc1ccccc1	6.9%	1.3%[18.4 µM]
7	CCN(CC(=O)Nc1c(F)cccc1F)C(=O)CCCN1C(=O)c2ccccc2C1=O	-16.8%	-15.1%
8	CCOC(=O)CC1(CCc2ccccc2)Oc2ccccc2O1	-14.7%	11.0%
9	CC1(C(=O)NS(=O)(=O)c2ccc(Cl)cc2)CCN1C(=O)CCc1ccccc1 (stereo not drawn)	-8.3%	-7.7%
10	CC1=CC(C)(C(Cl)(Cl)Cl)C(C)=CC1=NO (stereo not drawn)	-27.2%	-8.4%
11	Cn1c(NCc2ccccc2)nc2cc(-c3cccc(C(F)(F)F)c3)sc2c1=O	-1.7%	1.1%
12	O=C(Nc1cccc(OC(F)(F)F)c1)C1Cc2c(-c3ccccc3Oc3ccccc3)ccnc2O1 (stereo not drawn)	?	1.3%
13	CC12C=CC(=O)C=C1CCC1C2C(=O)C[C@@]2(C)C1CCC2(O)C(=O)CO (stereo partly drawn)	-18.7%	-4.6%[18.4 µM]
14	CC(=O)N(C)C[C@@H]1Oc2ncc(C#Cc3ccc(F)cc3)cc2C(=O)N([C@@H](C)CO)C[C@H]1C	-0.7%	8.0%
15	c1ccc(-c2cnc(-c3ccccc3)nn2)cc1	1.4%	-10.5%
16	COc1ccc(NC(=O)C2Cc3c(-c4cccc(NC(C)=O)c4)ccnc3O2)cc1 (stereo not drawn)	?	0.0%
17	COC(=O)C1=CN(c2ccc(C(C)(C)C)cc2)C(N)=C(C#N)C1c1ccc(OC)cc1 (stereo not drawn)	-25.4%	8.8%
18	CCCNC(=O)C1(C)CCN(C(=O)c2ccc(OC)cc2OC)C1 (stereo not drawn)	-14.6%	3.4%
19	CC(=O)c1c(C)[nH]c(C(=O)OCC(=O)NCc2ccccc2)c1C	-17.2%	-7.0%
20	COc1ccccc1Cn1c(C)c(C(=O)NCc2ccc(C#N)cc2)sc1=O	?	6.2%[18.4 µM]

Whole records as entered above:
Profile of `Cn1c(NCc2ccccc2)nc2cc(-c3cccc(C(F)(F)F)c3)sc2c1=O` = 2A StopGo: -1.7%; RE007 growth inh: 1.1%
Profile of `CC1=CC(C)(C(Cl)(Cl)Cl)C(C)=CC1=NO` (stereo not drawn) = 2A StopGo: -27.2%; RE007 growth inh: -8.4%

Going on with the list.
nr	mol	2A StopGo	RE007 growth inh
21	CC(C)NC(=O)N[C@H]1CC[C@H](CC(=O)NCc2ccc(Oc3ccccc3)cc2)O[C@@H]1CO	-15.5%	0.9%
22	CN[C@@H](C)C(=O)NC[C@H]1O[C@@H](n2cnc3c(=O)[nH]c(N)nc32)[C@H](O)[C@@H]1O	-11.9%	4.5%
23	CCCCc1nc2ccc(F)cc2cc1C	16.1%	3.4%
24	COc1ccc(-c2oc3ccc(N4CCOCC4)cc3c2C#Cc2ccc(N)cc2)cc1	-10.3%	0.6%
25	COc1cc(/C=N/NC(=O)c2cc(-c3ccccc3C)nc3ccccc23)cc(OC)c1O	-5.2%	6.0%
26	CC(C)Oc1ccccc1OC1(C)CCN(Cc2ccc(OC(F)(F)F)cc2)C1 (stereo not drawn)	-21.8%	-17.4%
27	O=C(CCN1CCN(Cc2ccccc2)CC1)NNC(=O)c1ccc(Cl)c(Cl)c1	-27.2%	1.4%
28	C[C@H](CO)N1C[C@H](C)[C@@H](CN(C)Cc2ccc(C(=O)O)cc2)OCc2cnnn2CCCC1=O	-1.8%	-3.8%
29	CCc1noc(C)c1C(=O)NCCN1C(=O)S/C(=C\c2ccccc2F)C1=O	?	6.5%
30	O=C(NCc1ccc(F)cc1F)[C@@H]1CCCN1C(=O)[C@@H]1CCCN1C(=O)c1cccs1	-23.7%	-10.7%
31	CC(C)(C)c1ccccc1NC(=O)Nc1nc(C(N)c2ccccc2Cl)cs1 (stereo not drawn)	-11.9%	9.6%
32	COc1ccc(C(C(=O)NCc2ccccc2)n2c(=O)c(-c3ccco3)nc3ccccc32)cc1 (stereo not drawn)	8.3%	2.7%
33	COc1ccc(C2C=C(C)Oc3c2c(=O)oc2ccccc32)cc1OC (stereo not drawn)	-9.4%	-6.2%
34	O=C1NC[C@@H](CCCCN2C[C@H](Cc3ccccc3)N(CCc3ccc(O)cc3)C(=O)C2=O)N(CC2CCCCC2)C1=O	1.2%	-4.6%
35	COc1ccc(NC(=O)C2(C)Cc3c(-c4ccc5c(c4)OCO5)ccnc3O2)cc1OC (stereo not drawn)	-7.8%	-6.2%
36	CC(=O)Nc1ccc(CN(C)c2c(C)nc3ccc(C(=O)N(C)Cc4ccco4)cn23)cc1	-14.4%	-4.3%[18.4 µM]
37	CC(C)N1CCC1(C)C(=O)Nc1cccc2ccccc12 (stereo not drawn)	22.4µM*	5.4%
38	CCC1NC(=O)c2cccnc2-n2c1nc1cc(F)ccc1c2=O (stereo not drawn)	-21.6%	12.6%
39	CC(OC(=O)[C@H](C)N=C1NS(=O)(=O)c2ccccc21)C(=O)Nc1ccc(F)c(F)c1F (stereo partly drawn)	-10.5%	8.6%
40	CN(CC(=O)NC(=O)NC1CCCCC1)CC(=O)Nc1ccccc1C(F)(F)F	-29.5%	-1.6%
41	COc1ccc(CCC(=O)N2c3ccccc3N=C(c3ccc(C(F)(F)F)cc3)C2C(=O)NC(C)C)cc1 (stereo not drawn)	34.0%[activator]	-0.7%
42	C#CCNC(=O)C1=C[C@@H](c2ccc(C(F)(F)F)cc2)C[C@@H](OCc2ccc(CO)cc2)O1	-14.5%	-11.1%
43	O=C1NC[C@@H](CCCCN2CCN(CCC3CCCCC3)C(=O)C2=O)N(CC2CCCCC2)C1=O	23.0%	-1.7%
44	Cc1c(C(=O)NCc2ccc(Cl)c(Cl)c2)sc(=O)n1Cc1cccc(F)c1	-14.9%	-1.0%[18.4 µM]
45	COc1ccc(C(C)(O)c2nc(-c3ccc(OC)c(OC)c3)cs2)cc1 (stereo not drawn)	0.0%	-1.4%
46	CCN(Cc1ccccc1)N=Nc1ccccc1	-11.1%	-0.5%
47	CCc1nc2c(OCc3ccc(F)c(F)c3)cccn2c1N(C)C(=O)C1CC1	-13.0%	-14.3%
48	Cc1ccc(S(=O)(=O)NN=C2CCCc3ccccc32)cc1	56.6%[activator]	-3.5%
49	O=C(NCCSc1ccccc1)c1ccccc1F	60.7%[activator]	-4.7%
50	COc1cccc(CN(C)C(=O)CC[C@H]2O[C@@H](n3cnc4c(NC(=O)c5ccccc5)ncnc43)[C@H](O)[C@@H]2O)c1	-9.2%	-6.6%
51	COc1cccc(-c2nc3nc(C)cc(C)n3c2Nc2ccc3c(c2)OCCO3)c1	-13.8%	-20.1%
52	COc1ccccc1CN1CCNC(=O)C1CC(=O)NCCCN1CCOCC1 (stereo not drawn)	-9.7%	-15.8%
53	C[C@@H]1CCCCO[C@@H](CN(C)C(=O)CCC(F)(F)F)[C@@H](C)CN([C@H](C)CO)C(=O)c2cc(N(C)C)ccc2O1	-24.5%	-13.1%
54	Cc1ccc(OC(C)C(=O)Nc2cccc(S(=O)(=O)N3CCCCCC3)c2)cc1 (stereo not drawn)	2.7%	-0.3%
55	Cc1noc(C)c1C(=O)N1CCC1(C)C(=O)NS(=O)(=O)c1cccc(OC(F)F)c1 (stereo not drawn)	7.7%	9.7%
56	CCCCNC(=O)C1(C)CCN1C(=O)Cc1ccc(OC)cc1 (stereo not drawn)	-1.3%	-10.9%[18.4 µM]
57	CCOC(=O)[C@]12CCCC=C1N(Cc1ccc(Cl)cc1Cl)C(=O)[C@H](CC(=O)NCc1ccccc1)C2	6.0%	11.0%
58	Cc1cc2nc(-c3ccc(Cl)cc3)c(Cc3cccc(F)c3)n2c(C)c1Br	-4.4%	-4.2%
59	Clc1ccc(CSc2nnc(-c3ccccn3)n2Cc2ccco2)cc1Cl	0.0%	5.0%
60	Cc1ccc(-c2cnc3c(c2)C(=O)N([C@H](C)CO)C[C@H](C)[C@@H](CN(C)Cc2ccccc2F)O3)cc1	-3.3%	33.0%
61	CC(=O)NC(c1ccccc1)c1nc(-c2ccc(F)c(Cl)c2)cs1 (stereo not drawn)	-22.1%	5.9%
62	CN(C(=O)c1cccc(NC(=O)Cc2cccc(NC(=O)C3CCN(C(=O)C4CCC4)CC3)c2)c1)C1CC1	-8.2%	0.7%
63	COc1ccc(NC(=O)c2cc(-c3ccc(F)cc3OC)n[nH]2)cc1OC	-9.0%	-1.5%[18.4 µM]
64	Oc1c(N=Nc2nn[nH]n2)ccc2ccccc12	?	-18.1%[18.4 µM]
65	Nc1sc(-c2ccccc2)cc1C(=O)NCCc1c[nH]c2ccccc12	-18.8%	0.7%
66	CC1=C(C(=O)N(C(C)C)C(C)C)CC(CC(=O)NC2CCCCC2)C(=O)N1CCCN1CCCC1=O (stereo not drawn)	-9.6%	0.9%
67	COc1ccc(CN2C(=O)C(CC(=O)NC(c3ccccc3)c3ccccc3)CC(C(=O)N(C)C)=C2C)cc1 (stereo not drawn)	-16.2%	4.2%
68	CN(C)c1ccc(-c2ccnc3c2CC(C)(C(=O)NCCC(F)(F)F)O3)cc1 (stereo not drawn)	3.7%	12.2%
69	O=C1CC2(CCCC2)Oc2ccc(Cl)cc21	-15.1%	-0.2%
70	COCCCn1c(SCC(=O)N2CCCC2=O)nc2ccccc2c1=O	-24.7%	-1.9%
71	CN1CCN(C(c2ccc(F)cc2)c2ccc3cccnc3c2O)CC1 (stereo not drawn)	-4.5%	-12.6%
72	COc1ccc(-c2nn(-c3ccccc3)cc2CNC[C@H]2O[C@@H](n3cnc(C(N)=O)n3)[C@H](O)[C@@H]2O)cc1	10.7%	13.1%
73	O=C(Nc1cc(S(=O)(=O)N2CCOCC2)ccc1OCC(F)(F)F)C1CCCC1	0.0%	1.9%
74	COc1ccc(-c2cc(C(=O)NCC3CCCCC3)[nH]n2)c(C)c1	24.7%	-10.9%
75	CSc1ccc(Cn2c(C)c(C(=O)NCc3ccc4c(c3)OCO4)sc2=O)cc1	?	7.6%[18.4 µM]
76	CCOC(=O)N(C)[C@H]1C[C@H]2c3[nH]c4ccccc4c3CCN2C[C@H]1[C@H](C)O	-14.2%	-21.8%
77	Cc1csc(NC(CO)c2nc3ccccc3n2CCOCCO)n1 (stereo not drawn)	-2.7%	3.2%
78	CCNC(=O)C1(C)CCCN(C(=O)/C=C/c2ccccc2)C1 (stereo not drawn)	-9.9%	-9.2%[18.4 µM]
79	CCOC(=O)[C@]12CCC=C1N(Cc1ccco1)C(=O)[C@H](CC(=O)NCCCCc1ccccc1)C2	0.0%	-4.6%
80	O=S1(=O)CCN(C2CCCC2)CC1	-0.6%	-8.3%

Additional compounds:
nr	mol	2A StopGo	RE007 growth inh
81	CC(C)(C)N1C(=O)c2ccccc2NC(=O)C1C(=O)Nc1ccc(N2CCOCC2)cc1 (stereo not drawn)	-10.7%	-1.3%
82	Cc1ccc(NC(=O)C2(C)CCN2C(=O)Cc2ccc(C(C)(C)C)cc2)cc1C (stereo not drawn)	-0.4%	8.6%[18.4 µM]
83	Cc1cn([C@H]2C[C@H](O)[C@@H](/C=C/C(=O)NCCc3cccs3)O2)c(=O)[nH]c1=O	-29.4%	1.6%
84	CC1(C(=O)Nc2ccc3c(c2)OCCO3)CCN1C(=O)CC1CCCC1 (stereo not drawn)	-23.0%	-9.4%
85	C[C@@H]1CN([C@H](C)CO)S(=O)(=O)c2ccc(Br)cc2O[C@H]1CN(C)S(C)(=O)=O	-20.4%	0.0%
86	CN(Cc1ccc(Cl)cc1)C(C(=O)NC1CCCCC1)c1ccnc2ccccc12 (stereo not drawn)	?	-3.1%
87	CCOC(=O)[C@]12CCCC=C1N(Cc1ccc3c(c1)OCO3)C(=O)[C@H](CC(=O)NCCc1ccccc1OC)C2	-8.3%	6.7%
88	O=C1Nc2ccccc2N=C(c2ccccc2)C1N(C(=O)c1ccnc2ccccc12)c1ccccc1 (stereo not drawn)	-2.3%	5.6%
89	Cc1ccc2nc(COC(=O)c3cccnc3Cl)cc(=O)n2c1	54.3%[activator]	5.6%
90	CN(C)C(=O)CNc1ccn2nc(-c3cccc(Cl)c3)cc2n1	-25.7%	-19.9%
91	COc1ccc(NC(=O)c2ccc(COc3ccccc3Br)o2)c(OC)c1	-10.4%	-2.3%
92	CN(C)CCCNc1nc2cc(-c3ccccc3CO)sc2c(=O)n1C	-22.6%	-5.9%
93	CCOC(=O)Cc1c(-c2cccc(Br)c2)nc2c3ccccc3ccn12	-0.7%	1.1%
94	CCCNC(=O)C1(C)CCN(C(=O)c2ccc(C)c(F)c2)C1 (stereo not drawn)	-7.3%	8.1%[18.4 µM]
95	CN(C)N=Nc1nc[nH]c1C(N)=O	-13.1%	2.2%
96	COc1ccc(C2=Nc3ccccc3N(C(=O)c3ccc(C(F)(F)F)cc3)C2C(=O)Nc2ccc3c(c2)OCCO3)cc1 (stereo not drawn)	14.3%	-6.1%
97	Cc1ccc(-c2csc(C(O)c3ccc(F)cc3)n2)cc1C (stereo not drawn)	24.1%	?

The list is partial (hit frequency here may not be typical).
